UUG fidelity = modulators of yeast start codon fidelity, primary screen, whole organism, S. cerevisiae, single point, plate reader. S. cerevisiae UUG-firefly luciferase reporter, luminescence/redox ratio. activity score, % at 18.7 µM. 350,000 compounds, 0.13% hits;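 active means replicate mean at a twofold rise or more, about +100% in these data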;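 further: firefly luciferase made from a UUG start codon reports start codon fidelity; reporter light over untreated wells divided by growth signal over untreated wells; some hits fall short of that in this replicate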
Numbers without * were called inactive.

SMILES	UUG fidelity
COc1ccc(NC(=O)N(C)C[C@@H]2Oc3c(NC(=O)c4cnccn4)cccc3C(=O)N([C@@H](C)CO)C[C@@H]2C)cc1	7
CN1c2ccc(-c3ccc(C#N)cc3)cc2[C@H]2[C@H](CCN2C(=O)c2cccc(F)c2)[C@@H]1CO	-9
O=C(C1CC1)N1C[C@@H]2[C@H](c3ccccc31)[C@H](CO)N2C(=O)c1ccccc1	-3
Cc1noc(C)c1NC(=O)N(C)C[C@@H]1Oc2c(NC(=O)C3CCOCC3)cccc2C(=O)N([C@H](C)CO)C[C@@H]1C	-13
N#Cc1cccc(-c2ccc3c(c2)[C@H]2[C@H](CCN2Cc2ccc4c(c2)OCO4)[C@H](CO)N3)c1	8
COc1ccccc1NC(=O)N1CCCCN2[C@H](C1)[C@@H](c1ccc(-c3cccc(F)c3)cc1)[C@@H]2CO	-8
C[C@H](CO)N1C[C@H](C)[C@H](CN(C)C(=O)NC2CCCCC2)Oc2ccc(NC(=O)c3ccncc3)cc2C1=O	0
Cc1ccc(S(=O)(=O)N2CC[C@@H]3[C@@H](CO)Nc4ccc(-c5ccccc5F)cc4[C@@H]32)cc1	-5
CC(=O)N1[C@H](CO)[C@H](c2ccccc2)[C@@H]1CNC(=O)CN1CCOCC1	-10
O=C(NC[C@@H]1[C@@H](c2ccccc2)[C@@H](CO)N1C(=O)Cc1cccnc1)C1CCC1	-15
C[C@@H]1CN([C@H](C)CO)C(=O)Cc2cc(NS(=O)(=O)c3ccccc3)ccc2O[C@H]1CN(C)Cc1ccc2c(c1)OCO2	-10
O=C(C[C@@H]1CC[C@H]2[C@@H](COC[C@H](O)CN2C(=O)c2cccnc2)O1)NCc1ccc(-c2ccccc2)cc1	-20
O=C(C[C@@H]1CC[C@@H]2[C@H](COC[C@H](O)CN2S(=O)(=O)c2ccccc2)O1)Nc1ccc(-c2ccccc2)cc1	-10
CCCC#Cc1ccc([C@H]2[C@@H](CO)N3CCCCN(S(=O)(=O)CC)C[C@@H]23)cc1	1
O=C(C[C@@H]1C[C@@H]2c3cc(NC(=O)Nc4ccccc4)ccc3O[C@@H]2[C@H](CO)O1)NCC(F)(F)F	-3
CC(C)N(C[C@H]1[C@H](c2ccccc2)[C@@H](CO)N1S(C)(=O)=O)C(=O)CN(C)C	164*
O=C(NC1CCCC1)N1CCCCN2[C@H](CO)[C@@H](c3ccc(/C=C/c4ccccc4)cc3)[C@H]2C1	-3
CC(C)NC(=O)N(C)C[C@@H]1Oc2c(NC(=O)Nc3ccccc3)cccc2C(=O)N([C@@H](C)CO)C[C@@H]1C	0
CO[C@@H]1CN(C)C(=O)c2ccc(NC(=O)Nc3ccccc3)cc2OC[C@@H](C)N(C(=O)Nc2c(C)noc2C)C[C@H]1C	0
CO[C@@H]1CN(C)C(=O)c2ccc(NC(C)=O)cc2OC[C@@H](C)N(Cc2ccccc2C(=O)O)C[C@H]1C	-2

Part of the list above in order of SMILES length, ascending:
SMILES	UUG fidelity
CC(=O)N1[C@H](CO)[C@H](c2ccccc2)[C@@H]1CNC(=O)CN1CCOCC1	-10
N#Cc1cccc(-c2ccc3c(c2)[C@H]2[C@H](CCN2Cc2ccc4c(c2)OCO4)[C@H](CO)N3)c1	8
Cc1ccc(S(=O)(=O)N2CC[C@@H]3[C@@H](CO)Nc4ccc(-c5ccccc5F)cc4[C@@H]32)cc1	-5
COc1ccccc1NC(=O)N1CCCCN2[C@H](C1)[C@@H](c1ccc(-c3cccc(F)c3)cc1)[C@@H]2CO	-8
C[C@H](CO)N1C[C@H](C)[C@H](CN(C)C(=O)NC2CCCCC2)Oc2ccc(NC(=O)c3ccncc3)cc2C1=O	0
CC(C)NC(=O)N(C)C[C@@H]1Oc2c(NC(=O)Nc3ccccc3)cccc2C(=O)N([C@@H](C)CO)C[C@@H]1C	0
O=C(C[C@@H]1CC[C@H]2[C@@H](COC[C@H](O)CN2C(=O)c2cccnc2)O1)NCc1ccc(-c2ccccc2)cc1	-20
Cc1noc(C)c1NC(=O)N(C)C[C@@H]1Oc2c(NC(=O)C3CCOCC3)cccc2C(=O)N([C@H](C)CO)C[C@@H]1C	-13
O=C(C[C@@H]1CC[C@@H]2[C@H](COC[C@H](O)CN2S(=O)(=O)c2ccccc2)O1)Nc1ccc(-c2ccccc2)cc1	-10
CO[C@@H]1CN(C)C(=O)c2ccc(NC(=O)Nc3ccccc3)cc2OC[C@@H](C)N(C(=O)Nc2c(C)noc2C)C[C@H]1C	0
C[C@@H]1CN([C@H](C)CO)C(=O)Cc2cc(NS(=O)(=O)c3ccccc3)ccc2O[C@H]1CN(C)Cc1ccc2c(c1)OCO2	-10

Other structures.
SMILES	UUG fidelity
COCC(=O)N1CCCCN2[C@H](CO)[C@H](c3ccc(C#Cc4cccnc4)cc3)[C@H]2C1	4
O=C(C[C@@H]1CC[C@H]2[C@@H](COC[C@H](O)CN2C(=O)c2ccccc2F)O1)N1CCCCC1	-5
C[C@H](CO)N1C[C@H](C)[C@H](CN(C)S(=O)(=O)c2cccs2)Oc2ccc(NC(=O)CCCN(C)C)cc2C1=O	7
N#Cc1cccc(-c2ccc3c(c2)[C@@H]2[C@@H](CCN2C(=O)CN2CCOCC2)[C@H](CO)N3)c1	-4
COc1ccccc1CN1[C@@H](CO)[C@@H]2c3ccccc3N(C(=O)C3CCCCC3)C[C@@H]21	6
O=C(Nc1ccccc1)N1CCCCN2[C@@H](CO)[C@H](c3ccc(C#Cc4cccnc4)cc3)[C@@H]2C1	-9
C[C@H](NC(=O)C[C@@H]1CC[C@@H]2[C@H](COC[C@H](O)CN2C(=O)Nc2ccccc2)O1)c1ccccc1	-4
C[C@@H]1CN([C@H](C)CO)C(=O)c2cccc(NC(=O)Nc3ccccc3)c2O[C@H]1CN(C)Cc1ccc(C(=O)O)cc1	0
C[C@H](O)C#Cc1ccc([C@H]2[C@H]3CN(CC4CC4)CCCCN3[C@H]2CO)cc1	10
Cc1cc(C(=O)Nc2cccc3c2O[C@@H](CN(C)C(=O)Nc2ccc(F)cc2)[C@@H](C)CN([C@H](C)CO)C3=O)n(C)n1	1
C[C@@H]1CN([C@H](C)CO)C(=O)c2cc(NC(=O)Nc3cccc4ccccc34)ccc2O[C@@H]1CN(C)S(C)(=O)=O	10
C[C@H](CO)N1C[C@H](C)[C@H](CN(C)S(=O)(=O)c2cccs2)Oc2ccc(NS(=O)(=O)c3cn(C)cn3)cc2C1=O	6
CO[C@H]1CN(C)C(=O)c2ccc(NS(=O)(=O)c3ccc(Cl)cc3)cc2OC[C@@H](C)NC[C@H]1C	45
O=S(=O)(Cc1ccccc1)N1CCCCN2[C@H](CO)[C@H](c3ccc(-c4ccccc4)cc3)[C@H]2C1	7
Cc1ccc(S(=O)(=O)N2CC[C@H]3[C@@H](CO)N(C)c4ccc(-c5cccc(C#N)c5)cc4[C@H]32)cc1	-15
Cc1ccc(S(=O)(=O)Nc2cccc3c2O[C@@H](CN(C)Cc2ccc(C(F)(F)F)cc2)[C@@H](C)CN([C@H](C)CO)C3=O)cc1	23
O=S(=O)(Cc1ccccc1)N1CCCCN2[C@H](CO)[C@@H](c3ccc(-c4cncnc4)cc3)[C@H]2C1	-10
Cc1ccc(S(=O)(=O)Nc2ccc3c(c2)C(=O)N([C@H](C)CO)C[C@H](C)[C@@H](CN(C)C(=O)Nc2ccc(F)cc2)O3)cc1	1
Cc1noc(C)c1S(=O)(=O)Nc1ccc2c(c1)C(=O)N([C@H](C)CO)C[C@H](C)[C@H](CN(C)C(=O)Nc1cccc3ccccc13)O2	14
CN(C)C(=O)c1ccc(-c2ccc([C@@H]3[C@H](CO)N4CCCCN(CCC(F)(F)F)C[C@@H]34)cc2)cc1	-4
C[C@@H]1CN([C@H](C)CO)C(=O)c2cccc(NC(=O)Nc3ccc(C(F)(F)F)cc3)c2O[C@H]1CN(C)CC1CCCCC1	-2
CN(C[C@@H]1[C@H](c2ccccc2)[C@H](CO)N1Cc1ccccn1)S(C)(=O)=O	-11
CN1c2ccc(-c3ccccc3)cc2[C@@H]2[C@@H](CCN2C(=O)c2ccccc2F)[C@@H]1CO	3
O=C(c1cccc(F)c1)N1C[C@H]2[C@@H](c3ccccc31)[C@H](CO)N2C(=O)C1CCCC1	-1
CCNC(=O)C[C@@H]1CC[C@H]2[C@@H](COC[C@@H](O)CN2S(=O)(=O)c2ccc(Oc3ccccc3)cc2)O1	6
COc1ccccc1NC(=O)N(C)C[C@H]1OCc2ccccc2-c2c(n(C)c3ccccc23)C(=O)N([C@H](C)CO)C[C@H]1C	11
CC(C)N(C[C@H]1[C@H](c2ccccc2)[C@H](CO)N1S(C)(=O)=O)C(=O)CN(C)C	5
C[C@H](CO)N1C[C@H](C)[C@@H](CN(C)Cc2ccc(-c3ccccc3)cc2)Oc2ccc(NC(=O)CCC(F)(F)F)cc2C1=O	7
C[C@H]1CN([C@@H](C)CO)C(=O)c2cccc(NS(=O)(=O)c3cccs3)c2O[C@@H]1CN(C)Cc1ccncc1	-14
COc1ccccc1NC(=O)N1CCCCN2[C@@H](CO)[C@H](c3ccc(C#CC4CCCC4)cc3)[C@@H]2C1	7
COc1cccc(C(=O)Nc2ccc3c(c2)C(=O)N(C)C[C@@H](OC)[C@@H](C)CN(CC2CC2)[C@@H](C)CO3)c1	-3
O=C(Nc1ccccc1F)N1CCCCN2[C@H](CO)[C@H](c3ccc(C#Cc4ccccc4)cc3)[C@@H]2C1	32
Cn1cnc(S(=O)(=O)N2CCCCN3[C@H](CO)[C@H](c4ccc(-c5ccccc5F)cc4)[C@H]3C2)c1	3
C[C@@H]1CN([C@@H](C)CO)C(=O)c2cc(NC(=O)Cn3cnnn3)ccc2O[C@@H]1CN(C)Cc1ccc(Oc2ccccc2)cc1	4
CN1C(=O)c2cc(NC(=O)C3CC3)ccc2OC[C@@H]2O[C@H](CC(=O)NC3CCC3)CC[C@H]21	20
CN(C)C(=O)c1cccc(-c2ccc([C@H]3[C@@H](CO)N4CCCCN(CC5CCOCC5)C[C@H]34)cc2)c1	6
O=C(c1ccccc1)N1CC[C@H]2[C@H](CO)Nc3ccc(C#Cc4cccnc4)cc3[C@H]21	-14
CCCNC(=O)N1[C@H](CO)[C@@H](c2ccccc2)[C@@H]1CNC(=O)c1ccccc1	2
C[C@H]1CN([C@@H](C)CO)C(=O)Cc2cc(NS(C)(=O)=O)ccc2O[C@@H]1CN(C)Cc1ccc(Oc2ccccc2)cc1	4
CO[C@H]1CN(C)C(=O)c2ccc(NS(=O)(=O)CC(F)(F)F)cc2OC[C@@H](C)N(Cc2nccs2)C[C@H]1C	-1
CCOC(=O)N(C)C[C@H]1OCc2ccccc2-c2ccccc2C(=O)N([C@@H](C)CO)C[C@@H]1C	-8
C[C@H](CO)N1C[C@H](C)[C@@H](CN(C)Cc2ccncc2)Oc2ccc(NS(=O)(=O)c3ccccc3)cc2C1=O	-1
C[C@H](CO)N1C[C@H](C)[C@H](CN(C)C(=O)Nc2ccc(C(F)(F)F)cc2)Oc2ccc(NC(=O)CCC(F)(F)F)cc2C1=O	17
Cc1ccc(S(=O)(=O)N(C)C[C@@H]2Oc3ccc(NC(=O)NC(C)C)cc3CC(=O)N([C@@H](C)CO)C[C@H]2C)cc1	15
CO[C@H]1CN(C)C(=O)c2ccc(NS(=O)(=O)c3ccccc3)cc2OC[C@@H](C)N(C(=O)NC(C)C)C[C@H]1C	15
C[C@H]1CN([C@@H](C)CO)C(=O)c2cccc(NS(=O)(=O)c3ccccc3)c2O[C@H]1CN(C)C(=O)NC1CCCCC1	12
CCC(=O)NC[C@H]1[C@H](c2ccc(C3=CCCC3)cc2)[C@@H](CO)N1C(=O)C1CC1	-8
C[C@@H](NC(=O)C[C@H]1CC[C@@H]2[C@H](COC[C@H](O)CN2C(=O)Nc2cc(Cl)cc(Cl)c2)O1)c1ccccc1	5
COc1ccccc1NC(=O)N1CC[C@@H]2[C@@H](CO)N(C)c3ccc(-c4ccc(F)cc4)cc3[C@@H]21	-7
C[C@@H]1CN([C@H](C)CO)C(=O)c2cccc(NS(C)(=O)=O)c2O[C@@H]1CN(C)C(=O)NC1CCCCC1	3

(next part)
SMILES	UUG fidelity
C[C@@H]1CN([C@H](C)CO)C(=O)Cc2cc(NS(=O)(=O)c3cccs3)ccc2O[C@H]1CN(C)CC1CC1	15
CO[C@H]1CN(C)C(=O)c2ccc(NS(C)(=O)=O)cc2OC[C@H](C)N(CC2CC2)C[C@H]1C	16
C[C@H]1CN([C@@H](C)CO)C(=O)Cc2cc(NC(=O)Nc3ccccc3)ccc2O[C@@H]1CN(C)Cc1ccc(C(=O)O)cc1	-3
Cn1cnc(S(=O)(=O)N2CC[C@@H]3[C@H]2c2cc(C#Cc4ccccc4)ccc2N[C@@H]3CO)c1	-4
O=C(C1CC1)N1CCCCN2[C@H](C1)[C@@H](c1ccc(C#CC3CCCC3)cc1)[C@@H]2CO	0
O=C(c1ccccn1)N1C[C@H]2[C@@H](c3ccccc31)[C@H](CO)N2C(=O)Nc1ccccc1F	7
C/C=C/c1ccc([C@@H]2[C@H](CO)N(C(=O)CC)[C@H]2CNC(=O)C2CC2)cc1	22
CCC(=O)Nc1ccc2c(c1)C(=O)N(C)C[C@@H](OC)[C@H](C)CN(C(=O)CC1CC1)[C@@H](C)CO2	-7
O=S(=O)(c1ccccc1)N1C[C@H]2[C@@H](c3ccccc31)[C@@H](CO)N2Cc1ccccn1	16
Cc1ccc(S(=O)(=O)N(C)C[C@@H]2Oc3ccc(NC(=O)NC4CCCCC4)cc3CC(=O)N([C@@H](C)CO)C[C@@H]2C)cc1	13
C[C@@H]1CN([C@@H](C)CO)C(=O)c2cccc(NS(C)(=O)=O)c2O[C@@H]1CN(C)Cc1ccc(Oc2ccccc2)cc1	-7
O=S(=O)(c1ccccc1F)N1CCCCN2[C@H](C1)[C@H](c1ccc(-c3cncnc3)cc1)[C@@H]2CO	4
CO[C@H]1CN(C)C(=O)c2ccc(NS(=O)(=O)c3cccc(F)c3)cc2OC[C@@H](C)N(Cc2cc(F)ccc2F)C[C@H]1C	-3

Screening results (PubChem BioAssay)

A portion of the library, so the mix of outcomes need not match the whole.
